GALR2 ag = GALR2 receptor agonists, primary screen, cell-based. actives 0.48% (n = 140,000). activation, %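 (tested at 5 µM)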. Galanin receptor type 2 (Homo sapiens), O43603. AID 803, 2007. GALR2-expressing cells, agonist activation read-out;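 active = above mean plus 3 SD of all compounds, about 5% in these data, not always enough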;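 note: 0% = vehicle buffer wells and 100% = reference agonist at full effect; tested in CHO reporter cells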
Target sequence (O43603 whole entry, looked up): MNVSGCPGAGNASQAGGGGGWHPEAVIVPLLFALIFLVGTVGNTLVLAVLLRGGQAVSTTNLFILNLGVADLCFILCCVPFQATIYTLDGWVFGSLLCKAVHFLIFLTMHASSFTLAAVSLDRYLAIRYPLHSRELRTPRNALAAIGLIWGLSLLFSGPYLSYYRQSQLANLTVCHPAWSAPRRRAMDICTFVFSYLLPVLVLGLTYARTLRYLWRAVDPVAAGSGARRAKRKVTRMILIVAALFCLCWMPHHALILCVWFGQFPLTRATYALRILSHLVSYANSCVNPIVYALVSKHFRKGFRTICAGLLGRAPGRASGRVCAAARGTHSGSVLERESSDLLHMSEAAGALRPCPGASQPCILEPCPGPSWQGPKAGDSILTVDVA
RGS16-Gao = modulators of RGS16 binding to Galphao, primary screen, biochemical, human proteins, multiplexed bead flow cytometry. Regulator of G-protein signaling 16 (Homo sapiens) + Guanine nucleotide-binding protein …. bead-based flow cytometry RGS16-Galphao binding, fluorescence; actives lie on both sides. binding response (% of control), % at 10 µM. actives 0.38% (n = 220,000). AID 1441, 2008;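 active = below 25% or above 175%, edge rows of some plates excepted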;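 note: Galphao activated by GDP with aluminum fluoride before binding; 100% = wells without compound and 0% = beads without RGS; some results beyond the cut were filed as inactive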
Target sequence (O15492 whole entry, looked up): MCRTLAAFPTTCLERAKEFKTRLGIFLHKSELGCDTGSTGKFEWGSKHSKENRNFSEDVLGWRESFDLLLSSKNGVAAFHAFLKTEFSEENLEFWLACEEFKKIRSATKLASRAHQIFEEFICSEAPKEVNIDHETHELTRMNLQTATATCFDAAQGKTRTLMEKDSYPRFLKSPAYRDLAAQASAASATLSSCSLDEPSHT
Target sequence (P09471 whole entry, looked up): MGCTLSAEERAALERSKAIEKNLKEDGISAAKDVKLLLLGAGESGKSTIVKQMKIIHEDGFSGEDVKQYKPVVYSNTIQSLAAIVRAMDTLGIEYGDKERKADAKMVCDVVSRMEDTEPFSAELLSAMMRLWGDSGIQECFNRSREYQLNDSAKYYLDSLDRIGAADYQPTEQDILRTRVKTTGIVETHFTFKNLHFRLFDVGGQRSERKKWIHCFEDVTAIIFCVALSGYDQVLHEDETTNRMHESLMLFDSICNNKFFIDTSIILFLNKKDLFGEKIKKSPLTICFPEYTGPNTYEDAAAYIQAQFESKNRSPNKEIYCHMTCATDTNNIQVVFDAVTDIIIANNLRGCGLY
PKD1 kinase inh = inhibitors of human PKD1 kinase, biochemical, fluorescence polarization. PKD1 kinase fluorescence polarization assay. inhibition, %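 (about 10 µM by stock and volumes)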. actives 0.056% (n = 200,000);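 active = inhibition of 50% or more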;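 note: controls were vehicle for no effect and a reference inhibitor for full effect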
Insulin prom inh = inhibitors of insulin promoter-driven GFP, primary screen, imaging, TRM-6 cells (human fetal islet line), eGFP reporter, cell count; reporter expression induced with tamoxifen; inhibition, % at 2 µM; actives 0.9% (n = 130,000);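 active = inhibition above the mean plus 3 SD, with well images judged a real hit on visual review, cut at about 60% in these data, passing the limit was not always enough; inconclusive = inhibition over the cutoff but images rejected on review; inactive = inhibition not above the cutoff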
HSV replic up = enhancers of HSV replication in host cells, fold increase, host cell viability; actives 0.005% (n = 220,000); HSV replication augmentation in cells; maximum fold increase;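 active = peak rise of 1.5-fold or more in the series; inconclusive = self-fluorescent or not available for retest; tested in PC3 cells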;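 note: first round at 10 µM; read as green reporter fluorescence; hits show the peak of a series up to 25 µM; 1 = signal of infected wells without compound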
Insulin prom inh cell count = also measured in Insulin prom inh; calls as there; normalized cell count, %; measured here: cell count, toxicity; reference of the scale not given here;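 cells exposed to compound for 48 h; stained nuclei by imaging scaled within each plate; lower means fewer cells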
HSV replic up primary fold = also measured in HSV replic up; calls as there; fold increase; compound at 10 µM; measured here: primary screen fold increase 10 uM; tested in PC3 cells;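 GFP signal in the first replicate; 1 = infected wells without compound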
Active calls of the source: *; i = inactive; ? = inconclusive; · = no result given. Not a hit list. About 1.2% of those tested had a hit in this group.

Values in the order: GALR2 ag	RGS16-Gao	PKD1 kinase inh	Insulin prom inh	Insulin prom inh cell count	HSV replic up	HSV replic up primary fold
> COc1cccc(C2CC(c3ccccc3)=NN2S(=O)(=O)c2ccccc2)c1OC (stereo not given)
 : ·	121	12	·	·	i	1
> Cc1ccc(-c2nc3ccc([N+](=O)[O-])cc3[nH]2)cc1
 : ·	97	4	·	·	i	0.97
> NC(=O)CSc1nnc(-c2ccco2)n1N
 : -2.9	·	-9	47	61	i	1.1
> C=CCOC(=O)c1ccc(-n2cncn2)nc1
 : -1.1	95	2	-7	159	i	0.92
> COc1ccc2[nH]c(C(=O)NCc3ccc4c(c3)OCO4)cc2c1
 : ·	105	·	·	·	i	0.95
> COc1ccccc1OCC(=O)Nc1ccc(S(=O)(=O)Nc2nc(C)cc(C)n2)cc1
 : -1.7	103	3	25	105	i	0.78
> CCCS(=O)(=O)N1CCN(C(=O)c2ccccc2F)CC1
 : -1.8	101	-5	37	88	i	1.1
> CCNC(=S)N1CCC(C(O)(c2ccccc2)c2ccccc2)CC1
 : ·	97	-2	-59	104	i	1
> Cc1cccc(NC(=O)/C(=C/c2cccc([N+](=O)[O-])c2)NC(=O)c2cccs2)c1
 : 0.2	101	13	·	·	i	0.99
> c1ccc2c(c1)NC(c1ccncc1)n1c-2nc2ccccc21 (stereo not given)
 : -2.9	106	-1	78*	80*	i	0.89
> COc1ccc(OC)c(NC(=O)CNC(=O)Cn2ccc3ccccc3c2=O)c1
 : 0.0	107	-4	·	·	i	0.88
> CC(=O)c1cc2c(cc1NC(=O)CCn1cccc1)OCO2
 : -0.7	101	-2	64	72	i	0.98
> CCc1nc(NC(=O)NS(=O)(=O)c2ccccc2C(=O)OC)nc(OC)n1
 : ·	97	4	·	·	i	1
> CCN1CCN(c2cc(C)c3cc(NC(=S)N(CC)CC)ccc3n2)CC1
 : ·	103	2	·	·	i	0.75
> COc1cc(SC)ccc1C(=O)Nc1ccc2c(c1)CCN2S(C)(=O)=O
 : -1.8	100	17	69	144	i	0.83
> COc1ccc2nc(C)[nH]c(=O)c2c1
 : -2.4	99	-9	15	75	i	0.88
> Cc1cccc2cc(C#N)c(NCCCNS(=O)(=O)c3ccc(Cl)cc3)nc12
 : ·	90	·	·	·	i	0.84
> O=C(NC1CCCCC1)C(c1cccs1)N(CC1CCCO1)C(=O)c1csnn1 (stereo not given)
 : -1.8	145	-20	·	·	i	1.1
> O=C(Cc1c[nH]c2ccccc12)Nc1nccs1
 : -3.4	132	-2	-24	91	i	0.96
> CNc1ccccc1NC(=O)CCn1c(=S)oc2ccccc21
 : ·	99	·	·	·	i	1
> Cc1ccc(-c2c3c(nc4sc(C(N)=O)c(N)c24)CCC3)cc1
 : 1.3	99	-5	-3	66	i	0.84
> Cc1ccc2c(Cl)c(C(=O)NCCCn3ccnc3)sc2c1
 : -1.3	96	-6	-352	42	i	0.83
> COc1cc(COCC(O)CN2CCN(Cc3ccc4c(c3)OCO4)CC2)cc(OC)c1OC (stereo not given)
 : ·	100	-5	-51	123	i	1.1
> COCc1nnc(NC(=O)CCCOc2ccccc2)s1
 : -0.9	103	-4	32	46	i	1.2
> N/C(=N\OC(=O)c1ccc2ccccc2c1)c1ccccn1
 : ·	97	2	·	·	i	0.85
> O=C(O)c1cccc(-n2c(O)c(C=C3N=c4ccccc4=N3)sc2=S)c1
 : ·	97	·	·	·	i	1.1
> CCOC(=O)Nc1ccc(S(=O)(=O)NCCCN2CCOCC2)cc1
 : -1.3	106	-14	4	113	i	0.95
> Cc1cccc(C)c1N1CCc2cn[nH]c21
 : -1.8	100	-8	-16	74	i	0.91
> COc1ccc(C2SCC(=O)N2C)cc1 (stereo not given)
 : -1.6	97	-13	19	69	i	0.9
> CC1=C(C(=O)OCC(C)C)C(c2ccsc2)NC(=O)N1 (stereo not given)
 : -0.3	100	4	47	120	i	0.95
> COc1ccccc1NC(=S)NC12CN3CN(CN(C3)C1)C2
 : ·	106	-8	·	·	i	0.98
> CCN(CC)C(=O)CSC1=Nc2ccccc2C2=NC(c3ccccc3)C(=O)N12 (stereo not given)
 : 1.1	72	-8	-61	83	i	1
> CCn1c(Cc2cccc3ccccc23)nnc1SCC(=O)Nc1nccs1
 : -0.3	97	-1	6	21	i	0.82
> CCOC(=O)C1CCCN(c2nc3c(C)cccn3c(=O)c2/C=C(\C#N)C(=O)NCc2ccco2)C1 (stereo not given)
 : ·	93	·	·	·	i	0.88
> O=C(O)c1ccc(NC(=O)C2(c3ccccc3)CCOCC2)cc1
 : -1.3	99	-7	-494	31	i	0.8
> COc1ccc(CCNC(=O)CSCc2ccc(C)cc2)cc1OC
 : -0.9	·	6	3	57	i	0.89
> CCOC(=O)C1=C(C)N=c2s/c(=C/c3ccco3)c(=O)n2C1c1cccc(OC)c1 (stereo not given)
 : -0.4	90	-4	·	·	?	·
> CC1(C)Cc2ccccc2-c2nc(CN3CCOCC3)[nH]c(=O)c21
 : 0.7	107	-4	·	·	i	1.2
> CCC(CC)C(=O)Nc1cc(C(=O)OC)ccc1C(=O)OC
 : 0.1	158	-1	54	57	i	1.1
> CC(C)CC(c1nnnn1C(C)C)N1CCN(c2cccc(Cl)c2)CC1 (stereo not given)
 : -1.0	101	9	·	·	i	0.89
> COCCn1c(-c2ccc(Cl)cc2)nc2oc3cc(OC)ccc3c(=O)c2c1=O
 : ·	106	·	·	·	i	0.85
> COc1ccc(C2c3ccc(O)cc3Oc3ncn(CCN4CCOCC4)c(=N)c32)cc1OC (stereo not given)
 : ·	101	·	·	·	i	1.1
> CCn1cc(CN(C)C(=O)CSc2nc(-c3ccco3)cc(C(F)(F)F)n2)c(C)n1
 : -1.4	·	-7	-188	79	i	0.98
> O=C(C1COc2ccccc2O1)N1CCc2ccccc2C1 (stereo not given)
 : -1.8	105	-3	40	159	i	0.92
> CCCCn1c(CCC(=O)O)nc2cc(S(=O)(=O)N(CC)CC)ccc21
 : ·	92	·	·	·	i	0.96
> O=C(N/N=C/c1cc([N+](=O)[O-])ccc1O)/C(=C\c1cccs1)NC(=O)c1ccccc1
 : -0.5	60	-5	40	72	i	0.95
> CCOC(=O)C1CCN(S(=O)(=O)c2ccc(OCC(=O)OC)cc2)CC1
 : -0.2	99	5	31	104	i	0.85
> O=C(Nc1cccc(S(=O)(=O)NC2=NCCC2)c1)c1cc(-c2ccccn2)nc2ccccc12
 : ·	96	·	·	·	i	0.94
> COc1ccccc1N1CCN(C(=O)CCCN2C(=O)c3cccc4cccc(c34)C2=O)CC1
 : -0.1	104	-3	·	·	i	0.91
> CC(NS(=O)(=O)c1ccc(F)cc1)C(c1cccs1)N1CCOCC1 (stereo not given)
 : -0.7	42	-4	27	70	i	0.95
> O=C(/C=C/c1ccc(F)cc1)NCc1ccco1
 : -0.9	105	-8	8	108	i	0.83
> CCn1c(C(O)c2ccc(C)cc2)nc2ccccc21 (stereo not given)
 : -1.5	108	-8	32	91	i	0.97
> Cc1cccc(NC(=O)c2sc3nc4c(c(-c5ccco5)c3c2N)CCC4)c1
 : -2.0	85	-3	13	61	i	1
> COc1ccc([N+](=O)[O-])cc1NC(=O)CS(=O)(=O)c1ccc(C)cc1
 : ·	100	-2	·	·	i	0.89
> CC(C)CC(=O)NC1(C(F)(F)F)NC(=O)N(c2ccccc2)C1=O (stereo not given)
 : ·	103	-2	·	·	i	1
> O=c1c(-c2ccnn2-c2ccccc2F)cnc2n1CCS2
 : 3.0	97	-10	-53	100	i	1
> O=C(CSc1nnc(Cn2cnc3ccccc32)o1)c1ccccc1
 : -0.1	93	-8	0	112	i	1
> COc1cccc(/C=C/C(=O)OCC(=O)Nc2ccc(S(=O)(=O)N3CCCC3)cc2)c1
 : 0.5	71	-20	-14	82	i	0.92
> COCc1nnc(NC(=O)c2ccc(S(=O)(=O)N(C)c3ccccc3)cc2)o1
 : 0.2	101	-15	·	·	i	0.88
> COc1ccc([N+](=O)[O-])cc1NC(=O)Cn1ccc(C(F)(F)F)n1
 : ·	98	-10	·	·	i	0.93

Brought forward from above: four compounds, then new ones.
Values in the order: GALR2 ag	RGS16-Gao	PKD1 kinase inh	Insulin prom inh	Insulin prom inh cell count	HSV replic up	HSV replic up primary fold
> O=C(CSc1nnc(Cn2cnc3ccccc32)o1)c1ccccc1
 : -0.1	93	-8	0	112	i	1
> COc1cccc(/C=C/C(=O)OCC(=O)Nc2ccc(S(=O)(=O)N3CCCC3)cc2)c1
 : 0.5	71	-20	-14	82	i	0.92
> COCc1nnc(NC(=O)c2ccc(S(=O)(=O)N(C)c3ccccc3)cc2)o1
 : 0.2	101	-15	·	·	i	0.88
> COc1ccc([N+](=O)[O-])cc1NC(=O)Cn1ccc(C(F)(F)F)n1
 : ·	98	-10	·	·	i	0.93
> Cc1ccc(CCNC(=O)C2CC(c3ccccc3C(F)(F)F)=NO2)cc1 (stereo not given)
 : ·	94	·	·	·	i	0.88
> CCNC(=O)CC1C(=O)N(c2ccc(OC)cc2)C(=S)N1CCc1ccncc1 (stereo not given)
 : ·	91	10	·	·	i	0.92
> CCC(C)(C)NC(=O)CN(C(=O)C(=O)Nc1ccc2c(c1)OCCO2)C(C)(C)CC
 : ·	100	-2	·	·	i	1
> Cc1csc(NC(=O)CSCC(=O)Nc2ccccc2)n1
 : -2.1	100	-14	12	85	i	0.88
> O=C(/C=C/c1cccs1)Nc1ccc(S(=O)(=O)Nc2ncccn2)cc1
 : ·	105	·	·	·	i	1.1
> CCOC(=O)Cn1nnnc1CN(Cc1ccc(OC)cc1)Cc1cc2cc(C)cc(C)c2[nH]c1=O
 : 0.3	90	-1	-5	69	i	1.2
> CCOC(=O)c1sc(=S)n(-c2ccc3c(c2)OCO3)c1N
 : -1.7	84	0	-75	77	i	0.88
> CCn1c(C)nc2cc(C(=O)NNC(=S)Nc3ccccc3OC)ccc21
 : ·	99	·	·	·	i	0.99
> CC(=O)c1ccc(NC2OC(C)C(O)C(O)C2O)cc1 (stereo not given)
 : -2.9	107	-5	-27	129	i	0.95
> CCOCCCNS(=O)(=O)c1ccc(NC(=O)Cc2c(F)cccc2Cl)cc1
 : ·	99	3	·	·	i	0.96
> CNC(=O)COC(=O)CNC(=O)c1cc(Cl)cc([N+](=O)[O-])c1
 : ·	102	3	-8	87	i	0.95
> O=C(CNC(=O)c1ccco1)NCCCc1ccccc1
 : -1.0	110	0	·	·	i	0.99
> CCOc1ccc(NS(=O)(=O)c2ccc3[nH]cc(C(=O)NC(C)CC)c(=O)c3c2)cc1 (stereo not given)
 : -2.0	100	-7	-89	67	·	·
> COc1ccc2nc(C(F)(F)C(F)(F)F)c(C#N)c(N)c2c1
 : 0.7	102	4	46	140	i	0.93
> COC(=O)c1ccc(Cl)cc1NC(=O)/C=C/c1ccc(C)o1
 : 0.3	91	1	4	144	i	1
> O=C1CC(N(Cc2cccs2)C(=O)Nc2ccccc2)C(=O)N1c1ccc(Cl)cc1 (stereo not given)
 : 0.5	101	1	·	·	i	0.92
> Cc1nn(CC(O)COc2ccc3c(c2)CCC3)c(C)c1Br (stereo not given)
 : -3.1	102	-9	-46	195	i	0.8
> CC/C(=N/O)c1cnnc(SC)n1
 : -2.2	16*	-4	-22	93	i	1.1
> CCOc1ccc2nc(SCC(=O)c3ccc(Cl)s3)sc2c1
 : -1.4	107	5	-23	115	i	0.99
> Cn1nc(-c2ccccc2)c(C(O)c2ccccc2C(F)(F)F)c1Cl (stereo not given)
 : -1.4	105	-4	-97	84	i	0.88
> CCCCCCOC(=O)CCn1[nH]c(=O)c2ccccc2c1=O
 : -1.3	104	2	7	93	i	1.1
> CN(C)[C@@H]1CCC[C@H]1OC(=O)C(c1ccccc1)c1ccccc1
 : -0.3	150	-4	·	·	i	0.99
> CC(C)(C)C(=O)Nc1nnc(CC(=O)NCc2ccccc2)s1
 : ·	100	-6	·	·	i	0.97
> Cc1cccc(-c2ncc(CN3CCN(CCC(C)C)C(CCO)C3)cn2)c1 (stereo not given)
 : ·	109	9	·	·	i	0.96
> Cc1nn(C)c(C)c1S(=O)(=O)N1CCC(C(=O)Nc2ccc3c(c2)OCCO3)CC1
 : -2.4	99	-7	·	·	i	1.1
> O=C(N/N=C/c1cc2ccccc2nc1Cl)/C(=C/c1cccs1)NC(=O)c1ccccc1
 : -2.5	104	8	37	117	i	0.94
